Assay outcomes: PubChem, several laboratories
YopH inh – YopH (Yersinia) phosphatase inhibition | fluorescence Ex485/Em525 | inhibition, %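 (about 10 µM by stock and volumes)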 | 140,000 tested, 0.16% active;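 active = inhibition of 50% or more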;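 also: controls were vehicle for no effect and minimum signal wells for full effect; inactives centre near -20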
Arbovirus anti – antivirals against arbovirus infection; arbovirus infection cell-based antiviral screen; inhibition, % at 10 µM; 200,000 tested, 0.37% active;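 active = inhibition from about 30%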;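 also: bluetongue infection of BSR cells; cell survival read as ATP light after 72 h; 0% = infected wells without compound and 100% = uninfected wells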
RecA intein inh – blocks M. tuberculosis RecA intein splicing; 290,000 tested, 0.75% active; inhibition, %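 (about 9 µM by stock and volumes)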; cell-free RecA intein splicing, fluorescence; in the data active = inhibition above about 30%; inconclusive = no clear call, values can overlap the other calls;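 also: 0% = vehicle wells and 100% = reference inhibitor control wells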
Target sequence (P9WHJ3 whole entry, looked up): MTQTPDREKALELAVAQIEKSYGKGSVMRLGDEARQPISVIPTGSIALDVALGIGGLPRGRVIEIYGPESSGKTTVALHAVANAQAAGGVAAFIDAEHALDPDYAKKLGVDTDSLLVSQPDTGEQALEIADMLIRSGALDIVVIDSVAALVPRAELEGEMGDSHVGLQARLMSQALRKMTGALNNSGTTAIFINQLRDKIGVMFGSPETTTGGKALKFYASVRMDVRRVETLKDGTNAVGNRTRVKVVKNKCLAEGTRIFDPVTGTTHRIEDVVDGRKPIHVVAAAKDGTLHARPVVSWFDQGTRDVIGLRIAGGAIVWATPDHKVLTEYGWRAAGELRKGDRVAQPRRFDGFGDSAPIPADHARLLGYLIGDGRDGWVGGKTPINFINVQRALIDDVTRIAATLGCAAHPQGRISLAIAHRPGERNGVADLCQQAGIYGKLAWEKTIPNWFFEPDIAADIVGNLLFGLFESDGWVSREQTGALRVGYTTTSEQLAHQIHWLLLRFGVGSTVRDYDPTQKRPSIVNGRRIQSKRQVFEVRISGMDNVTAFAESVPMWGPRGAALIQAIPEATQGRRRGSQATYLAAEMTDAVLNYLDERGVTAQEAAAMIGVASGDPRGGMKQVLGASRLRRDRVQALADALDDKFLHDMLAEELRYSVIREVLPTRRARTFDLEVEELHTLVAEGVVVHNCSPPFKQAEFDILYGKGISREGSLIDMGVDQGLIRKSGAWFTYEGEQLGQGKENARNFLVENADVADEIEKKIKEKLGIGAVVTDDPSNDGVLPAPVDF
Mtb growth – M. tuberculosis H37Rv growth inhibitors, H37Rv strain (AID 1626). 220,000 tested, 0.95% active. M. tuberculosis H37Rv growth inhibition; higher % means a stronger effect. one-dose inhibition, % at 10 µM; IC50 in µM for titrated hits;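 active = confirmed in a dose series; inconclusive = inhibition above 80% but not taken into the dose series; inactive = below 80% or under 30% at every dose of the series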;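 also: bacteria incubated seven days before Alamar blue readout; 0% = bacteria only wells and 100% = bacteria with antibiotic wells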
Mtb betalactam – beta-lactam sensitization of Mtb H37Rv; M. tuberculosis H37Rv growth with meropenem, percent inhibition; hits of this screen are not shown here; inhibition, % at 25 µM; 330,000 tested, 0.27% active; AID 434955;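 active = about 74% or more and at least 40 points above the plate without the antibiotic, then above 30% in a dose series; inconclusive = first-round hits that could not be retested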;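 also: growth measured after seven days incubation then overnight dye step; 0% = bacteria only wells and 100% = bacteria with antibiotic; twin plates without the antibiotic show which effects depend on it; some results filed as inactive read as strong as hits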
Arbovirus anti repeat – recorded beside Arbovirus anti, whose call it bears; inhibition, %; measured here: 10K subset replicate screen; many hits read low in the repeat;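 first of two repeat runs on a subset; 0% = infected and 100% = uninfected wells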
* = called active by the depositor; u = inconclusive; x = no result given.

SMILES	YopH inh	Arbovirus anti	RecA intein inh	Mtb growth	Mtb betalactam	others
Cc1ccc(-c2[nH]c(-c3ccccc3)nc2SCC(=O)NCC2CCCO2)cc1 (stereo not drawn)	-37.1	-7.2	-1.3	5.0%	1.6
Cc1ccc(Nc2cc(-n3nc(C)cc3C)ncn2)cc1	-10.2	-1.6	-1.4	8.1%	10.1
O=C(NNC(=O)c1cccs1)c1ccc([N+](=O)[O-])cc1	x	34.7*	x	12.2%	-5.4
CN1c2ccccc2-c2nc3ccccc3n2C1c1ccco1 (stereo not drawn)	-45.0	-3.0	-41.8	-0.5%	-3.4
Cc1ccc(NC(=O)CN2C(=O)c3ccccc3C2=O)nc1	x	15.7	-0.2	5.5%	0.1
CCc1ccccc1NC(=O)Nc1cccn(Cc2ccccc2F)c1=O	x	0.9	3.8	-1.8%	-2.4
Cc1cccc(CN2CCN(CC(=O)N3CCC4(CC3)OCCO4)C2=O)c1	-8.9	1.9	-1.0	-7.3%	-10.5
CCCCC(=O)NC(=S)NNC(=O)CC#N	-25.1	0.1	2.4	-7.4%	-0.6
Cc1cc(=O)oc2cc(OCC(=O)N3CC(C)OC(C)C3)ccc12 (stereo not drawn)	9.6	-12.1	-2.7	-8.1%	-12.3
c1ccc(COc2cccc(CNn3cnnc3)c2)cc1	-17.6	-0.4	1.5	-12.4%	-2.6
CC1CCCN(C(=O)c2ccc(-c3ccccc3Cl)o2)C1 (stereo not drawn)	x	x	17.5	x	53.1
CC1(C)Cc2c(c(N3CCCC3)nc3sc4c(N5CCNCC5)ncnc4c23)CO1	x	x	12.0	71.4%	61.2
COc1ccc(-c2cccc(NC(=O)COc3ccc(Cl)cc3)c2)nn1	x	x	2.1	x	u
Cc1ccccc1NC(=S)N1CCC(C(=O)c2ccc(F)cc2)CC1	-30.1	15.2	-0.3	0.8%	0.8
CC(C)Oc1cccc(C(=O)NC2=NCCS2)c1	x	-0.3	-2.9	-2.3%	-4.8
COc1ccc(N(CC(=O)NC2CCCCC2)C(=O)CCCC(=O)Nc2ccccn2)c(OC)c1	-13.2	7.1	-0.8	2.3%	-4.9
N=C(N=C(N)N)N1CCc2ccccc21	x	0.5	-2.9	-7.9%	-5.5
CCc1cc(CNC(=O)CC2C(=O)NCCN2Cc2cccc(OC)c2)on1 (stereo not drawn)	x	10.3	0.5	-10.6%	-9.7
CC(O)(CS(=O)(=O)Cc1ccccc1)c1ccccc1Cl (stereo not drawn)	x	x	-3.0	x	-3.4
O=[N+]([O-])c1ccc2c(c1)oc1ccccc12	-21.4	0.9	2.8	-1.1%	-1.6
CCS(=O)(=O)N1CCC(C(=O)Oc2ccccc2Cl)CC1	x	x	4.4	x	3.1
CCCCC(C(=O)O)C(C)CC(=O)NNC(=O)c1ccco1 (stereo not drawn)	x	7.1	-0.9	-8.5%	-7.1
CCn1c(=N)n(CC(=O)OC)c2ccccc21	-27.4	3.4	1.3	-6.7%	-4.8
Cc1ccc(NC(=O)c2ccccc2NC(=O)CCC(=O)O)cc1	-24.7	4.7	-1.4	-2.9%	0.5
O=S(=O)(c1ccc2c(c1)nc1n2CCC1)N1CCOCC1	-8.5	0.5	x	0.3%	0.3
CC(=O)c1cccc(NC(=O)CCC2CCCC2)c1	-7.5	-9.1	3.4	-6.0%	-13.9
CCC(=O)N1c2ccc(C)cc2C2=NNC(=S)NC21O (stereo not drawn)	8.6	-3.7	-0.5	-11.8%	-9.3
Cc1oc(-c2cccc(Cl)c2)nc1CN1CCC(C(=O)NCc2cccnc2)CC1	-7.5	11.7	1.2	-9.7%	12.1
CCCCn1nc2cc(C(=O)NCCCCc3ccccc3)ccc2c1OCC	-38.5	-18.6	3.3	-4.1%	63.1
COc1ccc(/C=N/NC(=O)c2ccccc2O)cc1CSc1ccccn1	-29.4	-3.4	-1.0	12.9%	3.3
FC(F)(F)c1cc(-c2ccc3c(c2)OCO3)nc(NCc2ccco2)n1	-46.0	5.0	x	-1.5%	-4.4
O=C(CCSc1nnc(-c2ccncc2)o1)Nc1cccc(Cl)c1	x	-11.8	-0.2	-4.5%	99.0
CCc1nnc(NC(=O)CSc2nnc(-c3ccco3)o2)s1	x	3.7	-2.3	5.5%	-3.7
CCOC(=O)C(NC(=O)Nc1ccc(Cl)cn1)(Oc1ccc(F)cc1)C(F)(F)F (stereo not drawn)	-6.9	18.3	-0.7	8.4%	-4.1
CC1(C)CC(=O)C(C=Nc2ccc(N)cc2)=C(O)C1	x	-10.3	-6.9	0.0%	-3.4
CCN(CC)Cc1c(O)ccc2c(=O)c(-c3ccc(Cl)cc3)coc12	x	x	-0.9	x	-1.1
COc1cc(C(=O)Oc2cc(N)n(S(=O)(=O)c3ccc(F)cc3)n2)cc(OC)c1OC	x	x	5.2	x	7.4
Cc1ccc(C2(c3ccc(C)cc3)CC2C(=O)Nc2ccc([N+](=O)[O-])cc2O)cc1 (stereo not drawn)	-13.5	-28.6	15.8	75.4%	97.5
COc1ccc(/C=N/OCC(=O)Nc2cc(C)on2)cc1OC	-34.1	2.1	1.3	7.2%	-1.8
Clc1ccccc1CNC1CN2CCC1CC2 (stereo not drawn)	-3.9	-0.1	-0.1	5.7%	2.7
Cc1c(N=c2scc(-c3ccccc3)n2C)c(=O)n(-c2ccccc2)n1C	x	4.4	-3.1	7.2%	1.8
O=C(CSc1nnc2ccccn12)NNC(=O)c1ccc(Br)cc1	x	9.7	0.7	-2.7%	12.2
CCOc1ccc(C2C(C(=O)c3ccco3)=C(O)C(=O)N2CCCn2ccnc2)cc1 (stereo not drawn)	-14.8	-3.4	-3.6	-4.8%	x
CCOc1ccccc1NC(=O)CSc1nc(=O)n(Cc2ccncc2)c2c1CCC2	x	x	1.3	x	-11.4
COc1ccc(-n2c(Cc3ccccc3)nc3ccccc3c2=O)cc1	x	-7.3	16.3	-4.9%	1.5
O=C(CSc1ncnc2c(-c3ccc(Cl)cc3)nsc12)c1ccccc1	-29.4	2.3	0.0	5.0%	6.7
N/C(=N\OC(=O)N1c2ccccc2Sc2ccccc21)c1ccccc1	11.6	-6.6	9.2	u	91.8
COc1ccc(OC)c(S(=O)(=O)Nc2ccc(C(N)=O)cc2)c1	-11.1	-0.6	-0.2	3.6%	-1.7
O=C(COC(=O)c1ccccc1Nc1ccc(SC(F)F)cc1)NCc1ccco1	0.9	14.9	1.3	9.9%	-7.8
CSCCOC(=O)C1=C(C)Nc2ccc(C)cc2S1	-14.5	-15.6	-1.4	3.6%	-2.8
Cc1ccc(S(=O)(=O)NCCSc2nnnn2C)cc1	-6.4	7.2	4.3	-1.4%	2.4
CC(=O)c1ccccc1NC(=O)CN1C(=O)CS/C1=C\c1nc(-c2ccc(C)cc2)cs1	x	2.6	7.6	0.1%	0.4
O=C(NCc1cccc(CNC(=O)C(=O)NCc2ccco2)c1)C(=O)NCc1ccco1	x	2.2	-1.9	5.0%	4.6
CC(=O)c1sc(NCCOc2ccc(C)cc2)nc1C	x	2.2	1.8	11.2%	2.3
COC(=O)CSC1=C(C#N)C(c2ccc3c(c2)OCO3)C2=C(CCCC2=O)N1 (stereo not drawn)	2.1	0.1	-8.0	-0.3%	3.1
N#Cc1ccccc1S(=O)(=O)N1CCN(c2ccc(S(=O)(=O)N3CCOCC3)cn2)CC1	-41.5	-1.2	0.6	0.7%	-3.9
O=C(O)CNC(=O)/C(=C\c1ccc2c(c1)OCO2)NC(=O)c1ccc(Br)cc1	x	11.7	-0.8	-7.8%	-2.2
COc1ccc(S(=O)(=O)NCC(=O)N(CC(=O)NCC2CCCO2)c2ccccc2C)cc1 (stereo not drawn)	-26.7	4.7	2.1	-3.3%	-5.9
O=C(NC1CCCCC1)C(c1cccs1)N(C(=O)c1ccco1)c1ccc2c(c1)OCCO2 (stereo not drawn)	1.2	-13.4	4.6	0.4%	2.1
Cc1ccccc1N/N=C/c1sc(=O)n(Cc2cccc(C(=O)O)c2)c1Cl	x	x	10.4	11.6%	21.2

Brought forward from above: 3 entries; new compounds follow.
SMILES	YopH inh	Arbovirus anti	RecA intein inh	Mtb growth	Mtb betalactam	others
COc1ccc(S(=O)(=O)NCC(=O)N(CC(=O)NCC2CCCO2)c2ccccc2C)cc1 (stereo not drawn)	-26.7	4.7	2.1	-3.3%	-5.9
O=C(NC1CCCCC1)C(c1cccs1)N(C(=O)c1ccco1)c1ccc2c(c1)OCCO2 (stereo not drawn)	1.2	-13.4	4.6	0.4%	2.1
Cc1ccccc1N/N=C/c1sc(=O)n(Cc2cccc(C(=O)O)c2)c1Cl	x	x	10.4	11.6%	21.2
O=C(O)CCn1c2ccccc2c2nc3ccccc3nc21	x	x	0.9	x	1.2
CCCc1cc(N2CCN(C(=O)c3ccco3)CC2)n2c(nc3ccccc32)c1C#N	4.0	-19.3	-89.6	-5.6%	0.4
CCc1c(C)[nH]c2c(C)cccc2c1=O	-13.9	3.7	-0.4	2.8%	-1.2
O=C(/C=C/c1ccc(Cl)cc1Cl)NCCSCc1ccccc1	-13.4	2.9	-1.9	-5.2%	1.3
CC(=O)Nc1ccc(OCC(O)Cn2c3ccccc3c3ccccc32)cc1 (stereo not drawn)	-7.0	-37.0	3.3	39.2%	68.5
O=C1C(C2=NC(C(=O)O)C3C(=O)N(c4ccccc4)C(=O)C23)=C(O)c2ccccc21 (stereo not drawn)	7.9	9.2	-2.6	-7.9%	2.5
CC1(C)Cc2c(sc(NC(=O)C(=O)N3CCCCC3)c2C(N)=O)CO1	x	x	4.5	x	-5.9
O=C(O)c1nn(CCOc2cccc(Cl)c2)c(=O)c2ccccc12	x	7.2	1.7	3.2%	-4.7
CCOc1ccc(S(=O)(=O)Nc2cccc(C(=O)N3CCN(c4ccc(OC)cc4)CC3)c2)cc1	-18.9	-1.5	5.2	-2.5%	8.9
CC(=O)Oc1oc(-c2ccccc2)nc1C=Nc1ccccc1	-8.0	1.9	1.8	0.7%	-4.7
OCC1(Cc2ccccc2)CCN(Cc2cnc(-c3ccc(Cl)cc3)nc2)CC1	x	1.7	10.9	11.5%	29.1
CNS(=O)(=O)c1ccc(NC(=O)C2c3ccccc3Oc3ccccc32)cc1	-21.2	-7.2	-0.1	-3.6%	3.1
CCNC(=O)C1Cc2cc(S(=O)(=O)N3CCCC3)ccc2N1C(C)=O (stereo not drawn)	x	x	-0.8	x	6.1
CCOc1ccccc1NC(=O)CCCn1cc([N+](=O)[O-])cn1	x	4.7	2.9	-4.0%	51.7
O=S(=O)(c1ccc(F)cc1)N1CCC2(CC1)OCCN2S(=O)(=O)c1cccs1	x	x	1.0	x	-5.1
Cc1ccc2onc(CC(=O)O)c2c1	-30.0	9.8	-0.5	-6.0%	-4.2
COc1ccc(/C(N)=N/OC(=O)CN(C)S(=O)(=O)c2ccccc2)cc1	x	-1.0	x	7.4%	x
O=c1c(-n2cncn2)c[nH]n1-c1cccc(Cl)n1	x	16.0	1.3	9.4%	-1.6
Cc1ccc(C(=O)NCC(=O)OCC(=O)Nc2cccc(S(=O)(=O)N3CCCC3)c2)cc1C	x	x	3.1	-3.6%	1.1
C=CCn1c(-c2ccc(OC)cc2)nc2ccccc21	-31.7	11.1	3.5	5.5%	-7.7
CCOC(=O)Cn1cc(C(=O)C(=O)N2CCOCC2)c2ccccc21	x	x	-1.7	x	-7.5
CCOC(=O)c1c(CC(C)C)csc1/N=C/C1=C(O)CCCC1=O	x	x	x	1.7%	53.4
CSc1ccc(/C=C/C(=O)c2c(O)cc(C)oc2=O)cc1	x	x	-2.9	x	99.5
CN(C(=O)CSc1nnc2ccccn12)C1CCS(=O)(=O)C1 (stereo not drawn)	13.8	10.0	-0.5	9.7%	-5.2
COc1ccc(/C=N/NC(=O)c2cccnc2)cc1CN1CCc2ccccc2C1	x	x	6.1	-4.6%	4.0
O=C(Nc1ccccc1O)c1ccccc1O	-62.4	23.1	-2.5	0.6%	6.4	Arbovirus anti repeat=8.6
CN1CCN(C(CNS(=O)(=O)c2ccc([N+](=O)[O-])cc2)c2ccc(F)cc2)CC1 (stereo not drawn)	x	x	-2.4	x	1.1
Cc1ccc(S(=O)(=O)N2CCOCC2)cc1C(=O)Nc1ccccc1N1CCCC1	x	x	-1.2	x	-3.3
COc1cc(C(=O)Nc2cccc3ncccc23)cc(OC)c1OC	-29.0	-3.3	-0.8	-1.6%	2.6
CC(=O)NC(=S)Nc1ccccc1N1CCN(C(=O)c2ccccc2)CC1	x	1.3	-1.7	10.6%	-0.7
COc1ccc([N+](=O)[O-])cc1NC(=O)c1ccc(Br)s1	x	-3.0	-8.1	1.6%	78.2
Cc1onc(-c2ccccc2Cl)c1C(=O)OCc1cnc(Cl)s1	x	3.6	6.9	13.2%	-6.2
Cc1ccc(NCc2nnc(SCC(=O)Nc3ccccc3)n2CC2CCCO2)c(C)c1 (stereo not drawn)	-1.5	3.6	-2.0	-9.1%	0.1
Cc1cccn2cc(-c3ccc4c(c3)NC(=O)CO4)nc12	x	x	-2.5	-14.5%	44.8

Not all compounds are listed. The share of hits here may be higher or lower than overall.
